# Assay outcomes: PubChem BioAssay, ICCB-Longwood Screening Facility, Harvard Medical School
# MgrA DNA FP – S. aureus MgrA activity modulators, primary screen, biochemical, S. aureus Newman, fluorescence polarization; MgrA-DNA binding; inhibition, %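 (about 10 µg/mL by stock and volumes)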; actives 0.13% (n = 84,000); AID 602314, 2012;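 active means above 50% in either of two replicates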;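 further: 0% = protein plus DNA without compound and 100% = DNA alone without protein; higher means less MgrA bound to DNA so lower polarization; one replicate is shown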
# Sa helicase inh – inhibitors of S. aureus replicative helicase, primary screen, biochemical, fluorescence unwinding readout | AID 485395, 2010 | purified S. aureus helicase, fluorescence unwinding assay; about half of the hits fall short of the stated cut | replicative DNA helicase (DnaC/DnaB), Staphylococcus aureus | inhibition, %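 (tested at about 80 µM)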 | actives 0.05% (n = 120,000);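 active means both duplicates at 50% or more, or one of them with a favoured structure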;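 further: 0% = mean of negative control wells and 100% = mean of positive control wells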
# * marks the source's active call; other numbers are inactive results; / = no result given. An excerpt; rates above refer to the full screens.
Compound | MgrA DNA FP | Sa helicase inh
C(=Nc1ccc(Nc2ccccc2)cc1)c1ccco1 | 2.4 | -1
Cc1cc(C)c2c(=O)[nH]n(C3CCCCCC3)c2n1 | / | -10
CC(N=Cc1c(O)ccc2ccccc12)C12CC3CC(CC(C3)C1)C2 (stereo unspecified) | 3.4 | -12
O=C1N(c2ccccc2)C(=Nc2ccccc2)SC12CC2 | -1.5 | /
FC(F)(F)c1nnc(Nc2cccnc2)s1 | 0.8 | /
CCOC(=O)c1c(-c2ccccc2)csc1NC(=O)CSc1nc2ccccc2o1 | 0.0 | /
NNC(=O)c1ccc2c(=O)n3c(nc2c1)CCCCC3 | / | -3
COc1cccc(-c2nn(C)c3sc(C(=O)N4CCN(c5ccccc5)CC4)cc23)c1 | -0.1 | 19
Cc1cc(C(=O)OCC(=O)N(c2ccccc2)c2ccccc2)c2ccccc2n1 | -2.6 | 8
S=C1NCN(C2CCCCC2)CN1 | -0.6 | 13
C=CCn1c(SCC(=O)/C(C#N)=C(\C)N)nnc1-c1ccoc1C | / | 2
O=C(NCc1ccc2c(c1)OCO2)NCc1ccc2c(c1)OCO2 | / | 6
NS(=O)(=O)c1cccc(S(N)(=O)=O)c1 | -0.9 | 0
COc1ccc(/C=C/C(=O)OC2CCCCC2=O)cc1 (stereo unspecified) | 0.6 | 22
Cc1noc(C)c1S(=O)(=O)N1CCCCC1 | -0.3 | /
N#Cc1cccc(C(F)(F)F)c1 | / | -2
O=C(NC1CCN(Cc2ccccc2)CC1)c1cccn1CCc1ccccn1 | -2.0 | /
O=C(CCn1c(=O)oc2cc(Cl)ccc21)n1c(=O)oc2cc(Cl)ccc21 | 1.6 | 22
Cc1c(C)c2c(c(C)c1O)CC[C@](C)(CCC[C@@H](C)CCC[C@@H](C)CCCC(C)C)O2 | 4.5 | /
Cc1sc(Nc2cc(Cl)cc(Cl)c2)nc1-c1ccc(-c2ccccc2F)cc1 | 1.7 | /
Clc1nccc2ccc(Br)cc12 | -0.1 | -11
Cc1ccc(NC(=O)Nc2cccs2)cc1 | 1.4 | 2
CSc1ccc(CN(CCO)Cc2ccccc2)cc1 | 0.9 | -8
COCCNC(=O)Cn1c(C(=O)OC)ccc1-c1ccco1 | / | -20
CC(=O)N(Cc1ccccc1)Cc1cn(-c2ccccc2)nc1-c1cc2ccccc2o1 | 0.7 | -10
Cc1cccc(NC(=O)CSC2=C(C#N)C(c3ccco3)C3=C(CCCC3=O)N2)c1 (stereo unspecified) | -0.9 | 3
Cc1cccc(N(C)S(=O)(=O)c2c(C)nc3sccn3c2=O)c1 | / | 27
CCCCn1c(C2CC(=O)N(c3cc(OC)ccc3OC)C2)nc2ccccc21 (stereo unspecified) | / | -50
CCOC(=O)/C=C/c1ccc(N)cc1 | -3.5 | -7
COc1ccc(C(=O)N(Cc2ccc3c(c2)OCO3)C2CCCC2)c(OC)c1 | / | -2
O=C(CN1CCN(C(=O)C2COc3ccccc3O2)CC1)Nc1ccccc1 (stereo unspecified) | / | 1
C/C(=N\NC(=O)c1ccc(CN2CCOCC2)cc1)c1cccs1 | 2.4 | 7
CC(C)(C)c1cc(CC(=O)O)cc(C(C)(C)C)c1O | / | 5
COc1c(/C=C(\NC(C)=O)C(=O)O)cccc1OC1CCCC1 | -4.6 | /
CCOC(=O)C1C2C=CC3(CN(C(C)C)C(=O)C13)O2 (stereo unspecified) | -2.5 | 0
Cc1cc(C)cc(NC(=O)CSc2ccc3nnc(-c4cccs4)n3n2)c1 | 0.2 | 6
CC(C)N(CCC#N)S(=O)(=O)c1cccc2nsnc12 | -2.2 | /
OCc1ccccc1NC(=S)Nc1cccnc1 | 2.8 | 0
Cc1ccccc1Cc1c(C)nc2c(C(=O)N3CCOCC3)cnn2c1C | 0.3 | 7
Cc1c(C)c(C)c(CNC(=S)NN)c(C)c1C | -0.1 | /
CC(C)C(=O)NCCCc1nc2ccccc2[nH]1 | / | -38
COc1ccc(C(=O)NCC2OCCc3ccccc32)cc1 (stereo unspecified) | 1.1 | 3
O=c1oc2ccccc2n1Cc1ccccc1 | -1.4 | /
CCOC(=O)C1CCN(C(=O)c2c(F)cccc2Cl)CC1 | -1.8 | /
CCSc1nc(N)c(Br)c(=O)[nH]1 | -3.0 | /
Cc1ccc2c(c1)sc(=NC(=O)c1ccc(S(=O)(=O)N(C)C)cc1)n2C | / | -15
Cc1ccc(-c2nc3ccccc3[nH]2)cc1NC(=O)C(C)C | 0.0 | 8
COCC(C)NC(=O)c1ccc(OC)cc1OC (stereo unspecified) | 3.2 | 2

# Record cards, from the list above. Order of screens: MgrA DNA FP | Sa helicase inh
# Cc1cccc(NC(=O)CSC2=C(C#N)C(c3ccco3)C3=C(CCCC3=O)N2)c1 (stereo unspecified) across the screens: -0.9 | 3
# COc1ccc(C(=O)N(Cc2ccc3c(c2)OCO3)C2CCCC2)c(OC)c1 across the screens: / | -2
# Cc1cc(C)c2c(=O)[nH]n(C3CCCCCC3)c2n1 across the screens: / | -10
# CCOC(=O)c1c(-c2ccccc2)csc1NC(=O)CSc1nc2ccccc2o1 across the screens: 0.0 | /

# The results go on.
Compound | MgrA DNA FP | Sa helicase inh
N#Cc1c(N)nc(SCC(=O)c2cc3ccccc3oc2=O)c(C#N)c1-c1ccc(O)cc1 | 0.2 | 7
O=C(O)c1ccn(Cn2cnc3ccccc32)n1 | -6.1 | 7
CC1CCN(C(=O)CSc2nnnn2C2CC2)c2ccccc2S1 (stereo unspecified) | / | -11
O=C(Cc1cccs1)Nc1c2c(nn1-c1ccccc1)CSC2 | / | -4
CCc1ccc(NC(=O)/C(C#N)=C/c2cc(C#N)n(C)c2C)cc1 | / | -7
Cc1ccc(OC(=O)c2ccc([N+](=O)[O-])cc2)c(Br)c1 | -0.8 | /
COc1ccc(C2=CC(c3ccccc3)c3ccccc3O2)cc1OC (stereo unspecified) | 2.5 | 7
Cc1cc(N=Cc2c(O)n(-c3cccc(Cl)c3)c(=O)c3ccccc23)no1 | / | -11
C=CCN1C(=O)C(C)(C)S/C1=N\S(=O)(=O)c1ccc(C)cc1 | / | -8
CN(C)S(=O)(=O)N1CCC(Oc2cccc(-n3cnnn3)c2)CC1 | / | -24
Cc1csc(SCc2cc(=O)c(OC(=O)c3ccc(S(=O)(=O)N4CCOCC4)cc3)co2)n1 | / | 3
Clc1ccc(CNc2ncnc3[nH]ncc23)c(Cl)c1 | / | 8
COc1ccc(/C(N)=N/O)cc1 | 1.0 | /
CC1CCc2c(sc3nc(CSc4nnc(-c5ccccc5)o4)[nH]c(=O)c23)C1 (stereo unspecified) | / | -16
CN(C)/C=C/C(=O)c1cccs1 | / | -20
O=c1ccc(Cl)nn1-c1ccccc1 | -2.1 | 0
CCC(C)(C)NS(=O)(=O)c1cc2[nH]c(=O)c(=O)[nH]c2cc1C | 1.8 | -1
COC(=O)c1ccc(COC(=O)c2cc(OC)cc(OC)c2)cc1 | / | 0
O=C1c2ccccc2C2N1CCCN2S(=O)(=O)c1ccccc1 (stereo unspecified) | -1.3 | /
O=C1CSCC(=O)N1Cc1cccc(C(F)(F)F)c1 | 2.0 | /
CN(CC(=O)NCc1cccs1)c1ccccc1 | / | 20
Cc1ccc(/C=C/C(=O)NC(c2ccc3c(c2)OCCCO3)C(C)C)o1 (stereo unspecified) | / | -13
O=C1CCCN1c1ccc(S(=O)(=O)Nc2ccc3oc4c(c3c2)CCCC4)cc1 | -0.9 | 6
O=c1ccc(Oc2nc(N3CCCCC3)nc(N3CCCCC3)n2)n[nH]1 | / | -8
COc1ccc(C(=O)O/N=C2\C(=O)N(C)c3ccccc32)cc1 | / | 31
N=C1CC(=O)N=C2SC(C3CC3)=NN12 | 4.5 | /
C=CCn1c(=O)[nH]c2c1c(=O)n(C)c(=O)n2C | -0.6 | 10
CCN(CC(=O)NC1CCS(=O)(=O)C1)C(=O)/C=C/c1cccs1 (stereo unspecified) | / | -5
N#CC1=C(SCc2ccccc2)SC(CO)NC1=O (stereo unspecified) | / | -10
O=C(COc1c(-c2ccco2)oc2ccccc2c1=O)NCCc1ccccc1 | 0.2 | 16
NS(=O)(=O)c1ccc(N=Cc2c(O)ccc3ccccc23)cc1 | 31 | -15
COc1ccc(-c2nc3n(n2)C(=O)CC(c2ccco2)S3)cc1 (stereo unspecified) | / | 13
CN(C)c1c(F)cc(C(=O)NC(=O)NC2=NCCS2)cc1F | 0.5 | /
O=C1S/C(=C/c2ccc(F)cc2)C(=O)N1CNc1ccc(Br)cc1 | 0.5 | /
O=C(CCCN1C(=O)CSc2ncccc21)NCCc1ccccc1 | / | -1
O=C(NCCOc1ccc2c(c1)OCO2)C1CCN(C(=O)NC2CCCCC2)CC1 | / | -21
NC(=O)CSc1nc2ccccc2c(=O)n1Cc1ccccc1 | 3.9 | 11
O=C(CCCC(=O)Nc1cccnc1)Nc1cccnc1 | 3.2 | /
Cc1ccc(-c2noc(CN(C(=O)Nc3ccccc3C)C(C)C)n2)cc1 | / | 22
Cn1c(C(C(=O)NCC2CCCO2)N(C(=O)Cn2nnc3ccccc32)c2ccc3c(c2)OCO3)nc2ccccc21 (stereo unspecified) | 0.8 | 11
Fc1ccc(-n2ncc3c(N4CCc5ccccc54)ncnc32)cc1 | / | 6
COc1cccc(N=c2scc(-c3ccco3)n2CC2CCCO2)c1 (stereo unspecified) | / | -2
C=CCn1c(C(C)O)nc2ccccc21 (stereo unspecified) | / | 2
CC(=O)OCC1OC(n2c(Br)nc3c(N)ncnc32)C(OC(C)=O)C1OC(C)=O (stereo unspecified) | / | -14
CC1(C(=O)O)CCC(C(=O)N2CCc3ccccc32)C1(C)C (stereo unspecified) | / | 6
COc1ccc(-c2ccc(CO)o2)cc1N | -4.2 | 4
O=C(C1c2ccccc2Oc2ccccc21)N1CCC2(CC1)OCCO2 | 0.9 | 6
CCOC(=O)c1c(N)c(C#N)n2c1CCC2 | / | -26
C=CCN(c1ccccc1)S(=O)(=O)c1ccc2c(c1)SC(C)C(=O)N2 (stereo unspecified) | -2.7 | -3
Cc1ccccc1NC(=O)CCC(=O)OC1CCC(C(C)(C)C)CC1 (stereo unspecified) | -2.0 | 7
O=C(c1c[nH]c2ccccc12)C(F)(F)F | 1.5 | 4
CCCCCN1N=C(C)CC1=O | -0.8 | 6
O=[N+]([O-])c1cccnc1Oc1ccc(F)cc1F | -0.6 | /
CN(Cc1ccccc1)C(=O)c1cccc(C(=O)N(C)Cc2ccccc2)c1 | -0.8 | 10
Cc1nc(C)c(C(=O)O)c(-c2ccc(Cl)cc2)c1C(=O)O | -3.6 | -15
COCCCNC(=S)Nc1cccc(C(F)(F)F)c1 | -0.4 | /
Cc1ccc(Cc2nc(-c3ccc(Cl)cc3)cs2)cc1 | 0.1 | /
COc1cc(OC)cc(C(=O)Nc2ccc(O)c(-c3nc4cc(C)c(C)cc4o3)c2)c1 | 1.7 | 20
CCSc1ccc(SC#N)s1 | -1.2 | 14
CCOc1ccc2nc(SCc3nc4ccccc4[nH]3)sc2c1 | -1.5 | 9

# Later entries:
Compound | MgrA DNA FP | Sa helicase inh
Fc1ccccc1N1CCN(c2c3c(nc4ccc(Cl)cc24)CCC3)CC1 | / | -23
Cc1cc2[nH]c(=O)c(=O)[nH]c2cc1S(=O)(=O)NC1CCCC1 | 0.3 | 5
S=c1[nH]ccn1CCc1ccccc1 | -0.9 | 1
CCCN(c1ccc(F)cc1)c1nc(-c2ccc(OC)cc2)no1 | / | -13
CCn1c(=S)[nH]c2nc3c(cc2c1=O)COC(C)(C)C3 | 2.6 | 11
CCOC(=O)c1cc(-c2cc3ccccc3o2)nn1CCC#N | / | -1
CCCCCCCCCCCCCCCC(=O)OCC(COP(=O)(O)O)OC(=O)CCCCCCCCCCCCCCC (stereo unspecified) | 0.8 | /
Cc1cc(C(=O)OC2CCOC2=O)c(C)n1-c1ccccc1 (stereo unspecified) | 3.7 | 10
O=C1CCc2nc3ccccc3n21 | / | 1
CCOC(=O)c1cc(CO)c(C)nc1C | 0.2 | -21
O=C(COc1ncnc2cc(Cl)ccc12)c1ccc(F)cc1 | -0.4 | /
Cc1c(C#N)c(NC(=O)CN2CCCC2c2cccs2)n(Cc2ccco2)c1C (stereo unspecified) | / | 27
CCOC(=O)c1sc2ncn(/N=C/N(C)C)c(=O)c2c1C | 2.7 | 32
COc1ccc(N2C(=O)C3C4C=CC(CC4)C3C2=O)c([N+](=O)[O-])c1 (stereo unspecified) | 0.0 | /
CC(=O)NC(=O)c1cc2cc(Br)ccc2oc1=Nc1ccc(C(C)=O)cc1 | -0.2 | /
O=C(COc1ccc(Br)cc1F)NCCc1ccccn1 | / | -9
CC1CCC(C(C)C)C(OC(=O)CSc2nnc(-c3cccnc3)n2N)C1 (stereo unspecified) | / | 6
CCN1CCN(CCC(=O)Nc2sc(-c3ccccc3)cc2C(=O)OC)CC1 | / | -8
N#CCCCn1c(O)c(N=NC(=O)C2COc3ccccc3O2)c2ccccc21 (stereo unspecified) | 0.7 | -4
C/C(=N\n1nnnc1Nc1ccccc1)c1ccccc1Cl | -2.0 | 10
CC(NC(=O)c1ccc2c(c1)OCCO2)c1ccc2c(c1)OCO2 (stereo unspecified) | -1.0 | 4
C=CCn1c(N)cc(=O)nc1SCC(=O)N1c2ccccc2Sc2ccccc21 | / | 11
CC(C)N(Cc1ccccc1)C(=S)Nc1cccnc1 | -1.5 | 10
CCC(C)c1ccc(NC(=O)c2cc3ccccc3o2)cc1 (stereo unspecified) | 1.8 | 6

# Retrieved by compound from the entries so far (three):
Compound | MgrA DNA FP | Sa helicase inh
C/C(=N\n1nnnc1Nc1ccccc1)c1ccccc1Cl | -2.0 | 10
CCOC(=O)c1sc2ncn(/N=C/N(C)C)c(=O)c2c1C | 2.7 | 32
C=CCn1c(N)cc(=O)nc1SCC(=O)N1c2ccccc2Sc2ccccc21 | / | 11
